Compound activity from PubChem BioAssay.
Six1-Eya2 inh: qHTS Assay for Inhibitors of the Six1/Eya2 Interaction; Homeobox protein SIX1 (Homo sapiens) + Protein phosphatase EYA2 (Homo sapiens), …; AID 651725, 2012; AlphaScreen GST-Six1/His-Eya2 binding, biochemical; active compounds read low; control for the full effect not named in the record; activity change, % (concentration not given with the values); 0.56% of 360,000 active; in the data active = activity change below about -65%; inconclusive = about -30% to -65%; inactive = above about -30%; note: % is set by controls: 0 for no effect and ±100 for the full control effect
Target sequence (O00167 whole entry, looked up): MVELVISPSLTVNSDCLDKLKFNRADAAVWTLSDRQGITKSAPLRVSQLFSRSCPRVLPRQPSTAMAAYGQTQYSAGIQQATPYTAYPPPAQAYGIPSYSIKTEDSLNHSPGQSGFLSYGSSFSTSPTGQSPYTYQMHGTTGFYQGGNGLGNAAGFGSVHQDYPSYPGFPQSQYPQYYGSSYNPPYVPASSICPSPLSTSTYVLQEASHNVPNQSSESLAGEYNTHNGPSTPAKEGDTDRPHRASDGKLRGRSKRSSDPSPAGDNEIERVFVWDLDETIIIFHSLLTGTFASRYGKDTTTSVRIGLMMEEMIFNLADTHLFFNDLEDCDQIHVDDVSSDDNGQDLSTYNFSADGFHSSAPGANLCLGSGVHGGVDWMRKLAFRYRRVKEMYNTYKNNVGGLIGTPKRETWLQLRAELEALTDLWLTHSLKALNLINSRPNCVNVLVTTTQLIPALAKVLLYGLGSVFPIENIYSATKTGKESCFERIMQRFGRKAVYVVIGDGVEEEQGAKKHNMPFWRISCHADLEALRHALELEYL
Target sequence (Q15475 whole entry, looked up): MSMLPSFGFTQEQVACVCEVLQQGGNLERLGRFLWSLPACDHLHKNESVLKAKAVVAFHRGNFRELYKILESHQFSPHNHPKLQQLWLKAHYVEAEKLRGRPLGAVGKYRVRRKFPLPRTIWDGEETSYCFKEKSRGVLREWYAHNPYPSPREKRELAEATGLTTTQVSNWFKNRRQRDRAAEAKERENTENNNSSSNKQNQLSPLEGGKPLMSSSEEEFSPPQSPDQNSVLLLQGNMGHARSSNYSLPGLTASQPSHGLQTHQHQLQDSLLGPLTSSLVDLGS
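GST-Six1 + His-Eya2 (5X stock: 250/500 nM); Tris pH 8.0, 300 mM NaCl, 0.05% BSA, 0.02% Tween 20; GSH donor/Ni acceptor beads; 1 h 37 °C dark; AlphaScreen readout.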
PINK1 expr mod: A Quantitative High throughput Screen to Identify Chemical Modulators of PINK1 Expression; PINK1 immunofluorescence, high-content cytometry, 24 h; Potency, µM (doses to about 76.6 µM), for the others: at the highest dose activation (PINK1 increase), actives largely listed as activators; 0.2% of 410,000 active; AID 624263, 2012; active = well fitted activation curve with a large enough effect; inconclusive = small, poorly fitted or top-dose-only effect; inactive = flat fitted curve, though single readings scatter; cell line not stated here;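 note: potency is the fitted concentration of half-maximal effect; % of control where 0% means no effect; nearly all actives have a fitted effect of over 65% in size; a mitochondrial uncoupler was the plate control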
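Cells are seeded, rested 12 hours, then given compound at five concentrations or DMSO for 24 hours. After fixation, blocking and antibody staining, PINK1 amount and mitochondrial localization are scored; CCCP serves as control.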
CtBP-E1A blk: qHTS Assay for Inhibitors of the CtBP/E1A Interaction; CtBP / adenovirus E1A interaction (AlphaScreen); 0.49% of 340,000 active; AlphaScreen GST-E1A/His-CtBP binding, 1536-well; active compounds read low; control for the full effect not named in the record; AID 651724, 2012; activity change, % (test concentration not listed); in the data active means activity change below about -65%; inconclusive means about -30% to -65%; inactive means above about -30%; note: % is set by controls: 0 for no effect and ±100 for the full control effect
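Homogeneous bead-based format: GST-tagged E1A captured on glutathione donor beads, His-tagged CtBP on nickel acceptor beads; compounds precede bead addition by 2 h at 37 °C.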
D2 PAM: Beta-Arrestin HTS for Positive Allosteric Modulators of the Human D2 Dopamine Receptor: Potentiators; D(2) dopamine receptor (Homo sapiens), P14416; 0.23% of 360,000 active; AID 624464, 2012; DiscoveRx D2 beta-arrestin cells, luminescence, 90 min; 100% = 57 uM dopamine signal; potentiation, % (concentration not given with the values); active = potentiation of 50% or more; inconclusive = 30% to 50%; inactive = 30% or less;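 note: compound concentration not given in the record; tested on top of an EC20 dose of dopamine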
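PathHunter D2 cells, attached overnight at 37 deg C, received compound in DMSO plus dopamine at EC20 (50 nM final) for 90 min at 37 deg C. Beta-arrestin recruitment was read as luminescence after 1 h with detection reagent at ambient temperature.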
D2 ag: Beta-Arrestin HTS for Positive Allosteric Modulators of the Human D2 Dopamine Receptor: Agonists | DiscoveRx PathHunter D2 beta-arrestin, luminescence, 90 min; 100% = 57 uM dopamine signal | activation, % (no concentration beside the values) | 0.084% of 360,000 active | AID 624465, 2012 | D(2) dopamine receptor (Homo sapiens), P14416; in the data active = activation above about 40%; inconclusive = about 15% to 40%; inactive = below about 15%; note: compound concentration not given in the record; the text of the record calls up to 30% inactive
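Agonist mode: compounds alone added to overnight-plated D2 PathHunter cells for 90 min at 37 C, with 57 uM final dopamine (EC100) defining full response. Beta-arrestin recruitment detected by chemiluminescent reagent, read after 1 h at ambient temperature.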
TRPML1 agonist: qHTS for Agonists of the Human Mucolipin Transient Receptor Potential 1 (TRPML1); TRPML1-expressing cells, Ca2+ dye fluorescence, FDSS; host cell line not named in the record; reference of the full effect not given here; 0.12% of 410,000 active; Mucolipin-1 (Homo sapiens), Q9GZU1; AID 624414, 2012; activation, % (no concentration beside the values); in the data active = activation above about 50%; inconclusive = about 30% to 50%; inactive = below about 30%; note: 0% is about no effect; the text of the record puts the active cut at 80%
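Cells: TRPML1-DL, 1X Tet inducer, ~16 h at 37 degrees C/5% CO2. Dye: ABD Ca8 no-wash + quencher, 45-90 min RT. Read: 10 s baseline, compound add, 110 s agonist phase; 54-4 EC80 (4uM final), 110 s antagonist phase.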
Starred values were filed as active, the others as inactive; u = inconclusive; x = not tested or not shown; & = joins results of further samples; [ ] = remark or other dose.

Structure,Six1-Eya2 inh,PINK1 expr mod,CtBP-E1A blk,D2 PAM,D2 ag,TRPML1 agonist
Cc1ccc(S(=O)(=O)N2CCCN(S(=O)(=O)c3ccc4c(c3)OCCO4)CC2)cc1,-3,0.4%,0,-2,6.4,-0.5&3.3
CN1CCN([C@H]2CS(=O)(=O)N[C@@H]2COCc2ccccc2)CC1,0,-0.9%,-4,0,5.1,-0.4
COC(=O)c1ccc(NC(=O)CSc2nn3c(=O)c(C)nnc3s2)cc1,-67*,1.1%,-93*,-1,0.8,-0.3
CCCCCCN1C=C/C(=C\C=C(C#N)C#N)c2ccccc21,u,-0.8%,u,-15,-0.5,1.7
O=C(Nc1ccccc1)NC1CC2CCC(C1)N2Cc1nnnn1Cc1ccc2c(c1)OCO2 (stereo unspecified),0,-2.0%,-1,-1,-3.3,0.5
CC(C)CC(NC(=O)c1cccc(Cl)c1)C(=O)O (stereo unspecified),-2,0.7%,10,1,-1.0,-0.3
CCCC(=O)Nc1nc2ccc(OCC)cc2s1,4,0.9%,-26,-8,9.6,0.7
CCc1ccc(N2C(=O)C3C4CCC(C4=C(C)C)C3C2=O)cc1 (stereo unspecified),6,1.5%,0,-13,-1.7,0.2
O=C(CNS(=O)(=O)c1ccc(Br)cc1)NCc1cccnc1,1,-0.4%,6,-17,-6.0,0.3
O=C1CN(C(=O)COC(=O)c2ccc(Br)o2)c2ccccc2N1,-2,0.3%,x,0,-0.9,-0.9
CCOC(=O)C1Cc2ccccc2CN1 (stereo unspecified),-4,-6.1%[38.3 µM],-11,-8,1.7,0.6
Cc1ccc(NCc2n[nH]c(=S)n2-c2ccccc2)cc1,0,-0.1%,2,-7,13,-0.4
CCCC1CCC(=C(C#N)C(N)=O)CC1 (stereo unspecified),14,1.4%,27,6,-4.0,-0.7
C[C@H]1CCCCO[C@H](CN(C)C(=O)C2CCCCC2)[C@@H](C)CN([C@@H](C)CO)C(=O)c2cc(NC(=O)NC3CCCCC3)ccc2O1,5,7.6%,-3,2,-8.8,-0.3
Cc1ccc2c(c1)N(S(=O)(=O)c1cc(-c3onc(C)c3C)ccc1C)CCO2,11,2.3%&2.1%,-13,-8,13,7.3&4.8
COc1ccc(/C=N/NC(=O)CNC(=O)/C=C/c2ccccc2OC)cc1,-9,9.1%,14,-9,-3.8,-1.6
COc1ccc(C(CNC(=O)c2cccc(S(=O)(=O)Nc3cccc(C)c3)c2)N2CCOCC2)cc1 (stereo unspecified),-3,-1.6%,6,-14,-2.7,-0.6
CC(C)(C)C(=O)Nc1ccc(-c2cc3cc(Cl)ccc3o2)cc1,2,-0.2%,x,5,1.2,2.2
S=C(Nc1ccc(Cl)cc1)c1nc2ccccc2s1,u,6.2%,u,-18,-3.1,2.1
CN(C)/C=C/C(=O)c1ccc(S(=O)c2ccccc2)cc1 (stereo unspecified),u,0.7%,u,3,2.2,0.6
COc1ccccc1NC(=O)c1ccc2c(c1)nnn2C,-1,2.0%,6,-2,-6.0,-0.5
OCCC1CN(Cc2ccsc2)CCN1C1CCCC1 (stereo unspecified),1,0.9%,-22,-14,0.5,0.1
COc1ccc(C(=O)NCCC2=CCCCC2)cc1OC1CCN(C(C)C)CC1,-3,0.1%,0,-14,-2.6,-0.4
CC1(c2nnnn2-c2ccc3c(c2)OCCO3)CCC(=O)N1C1CCN(Cc2ccccc2)CC1 (stereo unspecified),-7,-0.3%,1,x,x,-0.6
Cc1ccc(S(=O)(=O)N2CCN(c3ccccc3)CC2)cc1C(N)=O,7,-1.2%,3,-6,1.0,1.6
CC(C)C1C(C#N)=C(N)Oc2n[nH]c(-c3cccs3)c21 (stereo unspecified),6,-2.8%,-6,1,-3.7,0.4
Cc1ccn2c(-c3n[nH]c(=S)n3C)c(C)nc2c1,6,-1.0%,4,1,-2.1,0.6
CC(=O)c1nc(N2C(=O)CC(Cc3ccc(C)cc3)C2=O)sc1C (stereo unspecified),-4,0.6%,1,4,-1.3,-0.7
O=C(CCCc1nc2ccccc2s1)NC(c1ccccc1)c1ccccc1,-8,13%,0,-11,-0.3,2.7
C/C(=N/NC(=O)CC(=O)N/N=C(\C)c1ccc([N+](=O)[O-])cc1)c1ccc([N+](=O)[O-])cc1,0,0.2%,-23,2,3.5,-0.8
CC(=O)NC(Cc1ccccc1C)C(=O)NC1CCN(c2nnnn2-c2ccccc2)CC1 (stereo unspecified),9,1.3%,-1,-8,-2.2,0.0
O=C(c1ccc(-n2cnnn2)cc1)N1CCOCC1,-27,0.4%,5,-1,-4.1,-0.1
O=C(c1ccc(C(F)(F)F)cc1)C1CCCN(C(=O)CN2CCCC2=O)C1 (stereo unspecified),-1,-0.7%,3,-4,-4.9,-0.5
COc1ccc(N(CC(=O)NCCSCc2ccccc2C)S(=O)(=O)c2ccccc2)cc1,-11,0.6%,-5,-18,3.4,0.9
Cc1nc(NC(=O)C23CCC(C)(C(=O)O2)C3(C)C)sc1C (stereo unspecified),3,-0.1%,-7,-4,3.3,-0.2
COc1cc(OC)c(C(=O)N2CCN(c3ccccn3)CC2)cc1OC,2,6.0%,11,-4,-3.5,0.0
CCOc1cc(/C=C2\COc3ccccc3C2=O)cc(Br)c1OCC(=O)N(C)C,-10,-1.2%,-13,-5,-1.1,0.1
Cn1cc(/C=C2\SC(=S)N(N3CCOCC3)C2=O)c2ccccc21,4,u,8,-8,3.5,0.9
NS(=O)(=O)c1ccccc1NC(=O)c1c(O)c2ccccc2[nH]c1=O,-2,-0.6%,-3,-3,-4.1,-1.2
Cc1cccc(-c2nc3ccccc3c(=O)n2NC(=O)c2cccs2)c1,13,0.3%,8,2,1.3,0.8

A run of entries from further up:
Structure,Six1-Eya2 inh,PINK1 expr mod,CtBP-E1A blk,D2 PAM,D2 ag,TRPML1 agonist
COc1ccccc1NC(=O)c1ccc2c(c1)nnn2C,-1,2.0%,6,-2,-6.0,-0.5
OCCC1CN(Cc2ccsc2)CCN1C1CCCC1 (stereo unspecified),1,0.9%,-22,-14,0.5,0.1

(list continues)
Structure,Six1-Eya2 inh,PINK1 expr mod,CtBP-E1A blk,D2 PAM,D2 ag,TRPML1 agonist
O=C(CSc1nc2nn(-c3ccccc3)c(=O)c-2c2n1CCCCC2)NCCCc1ccccc1,-11,1.6%,-7,-5,0.7,2.2
COc1ccccc1-n1nnnc1SCC(=O)NC1CC1,-2,-0.9%,2,-5,-2.4,-0.1
OCC[C@@H]1C[C@@H](O)[C@H](O)[C@]2(CCc3ccccc3O2)O1,5,0.4%,7,-10,-6.3,0.2
CCc1ccc(C2CC(c3ccccc3)n3ncnc3N2)cc1 (stereo unspecified),3,-0.1%,-2,-3,3.0,1.4
COc1cccc(Cn2c(Oc3ccccc3)nc3c2c(=O)n(C)c(=O)n3C)c1,-8,1.0%,-4,-11,-0.8,4.0
O=C(COC(=O)c1ccc[nH]c1=O)NCC12CC3CC(CC(C3)C1)C2,8,0.6%,-12,-3,-3.3,0.0
Cc1ccc(CN2CCN(/N=C/c3cccnc3)CC2)c(C)c1,-12,3.2%,-16,-20,-1.7,0.0
CCOC(=O)C(CCCCP(=O)(c1ccccc1)c1ccccc1)(NC(C)=O)C(=O)OCC,15,1.0%,0,1,-8.4,0.2
CCOC(=O)c1ccccc1NC(=O)COC(=O)CCNS(=O)(=O)c1cccs1,-10,0.4%,-3,-3,-4.1,3.7
O=C(c1ccc(COc2c(F)c(F)cc(F)c2F)o1)N1CCN(c2ccccc2)CC1,0,-1.6%,4,-8,-0.1,2.3
C/C(=N\NC(=O)C1(C)NC(C)(C)Cc2ccccc21)c1ccccc1 (stereo unspecified),5,2.6%,1,0,-6.1,0.2
O=C(Cc1coc2cc(O)ccc12)NNC(=O)c1cccs1,-4,0.0%,8,-7,0.0,-1.1
COc1ccc(C(=O)N2CCCC(CNC(=O)c3ccccc3Cl)C2)o1 (stereo unspecified),-5,-0.1%,x,-3,-3.0,4.2
O=C(O)CCc1ccc(-c2ccc(Br)cc2)n1Cc1ccco1,-12,20%[38.3 µM],-10,-1,-1.9,-0.2
Cc1ccc([C@H]2C[C@H](O)[C@@H](n3cc(-c4ccc(F)cc4)nn3)CN2C(=O)C2CCCCC2)cc1,-6,11%,6,1,-0.6,-0.4
N#CCCSc1nc(N2CCOCC2)c2c(c1C#N)CCCC2,-7,-3.0%,0,3,7.7,9.0
Cc1c(Br)c(C(F)(F)F)nn1CC(=O)NCCCn1ccnc1,7,-0.1%,4,-16,0.5,-0.7
O=C(COC(=O)c1ccco1)NCCNC(=O)COC(=O)c1ccco1,17,-2.8%,-4,-17,-0.7,0.4

An excerpt from above in order of their number in D2 ag, rising:
SMILES	D2 ag
OCC[C@@H]1C[C@@H](O)[C@H](O)[C@]2(CCc3ccccc3O2)O1	-6.3
COc1ccccc1-n1nnnc1SCC(=O)NC1CC1	-2.4
Cc1ccc([C@H]2C[C@H](O)[C@@H](n3cc(-c4ccc(F)cc4)nn3)CN2C(=O)C2CCCCC2)cc1	-0.6
Cc1c(Br)c(C(F)(F)F)nn1CC(=O)NCCCn1ccnc1	0.5

Structures listed so far shown as hits in Six1-Eya2 inh.
compound,Six1-Eya2 inh,CtBP-E1A blk,D2 PAM,D2 ag
COC(=O)c1ccc(NC(=O)CSc2nn3c(=O)c(C)nnc3s2)cc1,-67*,-93*,-1,0.8
